VACV mCherry inh = vaccinia inhibition (mCherry reporter); AID 720579; 310,000 compounds, 0.63% hits; Vaccinia virus mCherry reporter infection, fluorescence; about a quarter of the inactives have no number; Potency, µM (highest dose often 36.5 µM), for inactives: top-dose activity change, negative = inhibition, usual class: inhibitors; active = well fitted inhibition curve with a large enough effect; inconclusive = small, poorly fitted or top-dose-only effect; inactive = no such curve, though single readings can be large or run the other way; tested in A549 cells; note: nearly all actives have a fitted effect of over 35% in size; inactives centre near -10
Vaccinia Venus = vaccinia inhibition (Venus reporter); AID 720580; Vaccinia virus Venus reporter expression, fluorescence; 330,000 compounds, 0.46% hits; Potency, µM (series often up to 36.5 µM), for inactives: top-dose activity change, negative = inhibition, most hits filed as inhibitors; active means well fitted inhibition curve with a large enough effect; inconclusive means small, poorly fitted or top-dose-only effect; inactive means no such curve, though single readings can be large or run the other way; tested in A549 cells; note: nearly all actives have a fitted effect of over 30% in size; inactives centre near -10
* = called active by the depositor; i = inactive; ? = inconclusive; . = no result given. % is set by controls: 0 for no effect and ±100 for the full control effect; potency is the fitted concentration of half-maximal effect.

SMILES	VACV mCherry inh	Vaccinia Venus
CN(c1ccccc1)S(=O)(=O)c1nnc(NC(=O)COc2ccccc2)s1	-5%	-4%
CCNC(=O)CSc1nc(-c2ccccc2)cs1	i	-9%
CCc1noc(C)c1C(=O)N(C)CC(=O)Nc1ccc(F)c(F)c1F	-10%	-5%
C[C@@]12C(=O)Nc3cc(F)ccc3C(=O)N1[C@H]1c3cc(Br)ccc3OC[C@@H]1[C@@H]2c1ccccc1	-14%	-30%
FC(F)(F)COc1ccc(-c2nnc(SCc3ccccc3)o2)cn1	-18%	-4%
O=C(NC1CCCc2ccccc21)c1ccc2c(c1)OCO2 (stereo not drawn)	-6%	0%
CC(=O)Nc1cc(-c2cccc(C(=O)N(C)C)c2)cn2c(-c3ccccc3)cnc12	-2%	-4%
CCCN(CCC)CCCNC(=O)c1cc2cc3ccc(OC)cc3nc2o1	-1%	7%
Cc1noc(C)c1CN(C(=S)NC(C)C)c1ccccc1	-1%	-7%
N#CCNC(=O)c1cccn1-c1ncc(C(F)(F)F)cc1Cl	i	-6%
CC(C)(C)C(=O)NCCc1nc2ccccc2n1CCCCOc1ccc(Cl)cc1	?	?
COc1ccc(NC(=O)N[C@@H](CCSC)C(=O)O)cc1OC	i	-5%
COc1ccc(/C=N/N=C2/SCC(=O)N2Cc2ccccc2)cc1	-19%	-13%
Cc1nn(-c2ccccc2)c(N2CCCC2)c1/C=N/NC(=S)Nc1ccccc1F	i	-10%
Cc1ccc(/C=N/n2c(-c3cccs3)n[nH]c2=S)cc1	.	?
COc1ccc(Cl)cc1NC(=O)COC(=O)c1ccc(Br)o1	-24%	15%
CCCS(=O)(=O)N1CCC(C(=O)NCCN(CC)c2ccccc2)CC1	.	-11%
COc1ccc([C@H]2[C@H](C(=O)OC(C)(C)C)N3N=Cc4ccccc4C3C23C(=O)c2ccccc2C3=O)c(OC)c1 (stereo partly drawn)	?	-16%
COC(=O)C1=C(C)NC(=O)CC1c1cc2c(cc1Br)OCO2 (stereo not drawn)	.	-21%
O=C(NCC(c1cccs1)N1CCOCC1)c1cc(Cl)ccc1[N+](=O)[O-] (stereo not drawn)	i	-14%
COc1ccccc1C(=O)NCCC(=O)N1CCCCCCC1	-11%	-4%
O=C(CCCn1c(=O)c2ccccc2n(CC(=O)Nc2cccc(C(F)(F)F)c2)c1=O)NCc1ccc2c(c1)OCO2	-14%	-14%
CS(=O)(=O)N(CC(=O)O)c1ccc2c(c1)OCO2	.	-12%
O=C(COc1ccc2ccccc2c1Br)N1CCCC1	-8%	-7%
COCCN(C)C(=O)c1cnn(-c2ncc3c(n2)-c2ccccc2CC3)c1C	-3%	-17%
Further records follow.
SMILES	VACV mCherry inh	Vaccinia Venus
O=C(Nc1ccc(Cl)cc1F)c1ccc2c(c1)C(=O)N(Cc1ccncc1)C2=O	i	0%
CCOc1ccc(NC(=O)CCNC(=O)N2C[C@H]3C[C@@H](C2)c2cccc(=O)n2C3)cc1	-1%	-2%
c1ccc2[nH]c(NCCN3CCOCC3)nc2c1	6%	0%
O=c1c2ccccc2c2c(O)nc(-c3ccccc3)n2n1Cc1ccccc1	-14%	-4%
C/C(=N/NC(N)=S)c1ccccc1[N+](=O)[O-]	?	-26%
Nc1[nH]c(=O)nc2c1ncn2C1OC(CO)C(O)C1O (stereo not drawn)	?	?
Cc1ccccc1Oc1ccc(Oc2ccccc2C)nn1	-4%	1%
CC(C)COC(=O)/C(C#N)=C/c1c[nH]c2ccccc12	-1%	-18%
CN(C(=O)CS(=O)(=O)c1cn(CC(=O)N2CCOCC2)c2ccccc12)c1ccccc1	-13%	-7%
Cc1cccc(CN2CCN(C3CN(C4CCCCC4)S(=O)(=O)C3)CC2)c1 (stereo not drawn)	-3%	-15%
CN(C(=O)CSc1nnc(N)s1)c1c(N)n(Cc2ccccc2)c(=O)[nH]c1=O	.	?
COC(=O)c1[nH]c2c(c1C)C(=O)CCC2	i	-9%
Cc1ccc(CN2CCN(Cc3cnn(-c4ccc(F)cc4)c3)CC2CCO)o1 (stereo not drawn)	i	-14%
CN(CC(=O)Nc1ccc(Cl)cc1)CC(=O)N1CCc2ccccc21	-13%	-21%
C=Cc1ccc(CN2C(=O)N(c3ccc(C)c(C)c3)S(=O)(=O)c3ccccc32)cc1	4%	-9%
COc1ccc(-c2cc3nc(NCCN4CCCC4)n(C)c(=O)c3s2)cc1OC	-2%	?
CCOC(=O)c1c(-c2cccc([N+](=O)[O-])c2)cn2ccccc12	-25%	-22%
CC1CCN(Cc2csc(N)n2)CC1	.	-1%
CCc1nc2ccc(C(=O)N3CCN(C(=O)c4ccco4)CC3)cn2c1N(C)Cc1ccc(OC)cc1	-8%	1%
O=C(NCc1ccccc1)c1ccc(NC(=O)c2ccccc2F)cc1	-30%	-30%
O=C(c1ccc([N+](=O)[O-])cc1)n1nc(-c2ccccc2)nc1NCc1ccccc1	-15%	?
O=C1C(Nc2ccccc2)=CC(c2ccc(O)cc2)N1c1ccccc1 (stereo not drawn)	?	-8%
COC(=O)Cc1csc(N)n1	-18%	0%
COc1ccccc1N=Cc1nc(-c2ccccc2)oc1OC(C)=O	-4%	-24%
N#Cc1cccnc1N1CCN(C(c2ccnc3ccccc23)c2nnnn2-c2ccc3c(c2)OCCO3)CC1 (stereo not drawn)	i	-11%
Remaining list, next part:
SMILES	VACV mCherry inh	Vaccinia Venus
CCCCNC(=O)COC(=O)c1c2c(nc3ccccc13)CCC2	-5%	-4%
COc1cc(-c2cc(C(=O)Nc3ccc(S(=O)(=O)Nc4ncccn4)cc3)c3ccccc3n2)cc(OC)c1OC	-5%	-1%
CC(CCc1ccccc1)NC(=O)C1CCN(S(=O)(=O)c2cnc[nH]2)CC1 (stereo not drawn)	-14%	-9%
O=[N+]([O-])c1ccc(S(=O)(=O)c2cccc(C(F)(F)F)c2)nc1	-20%	?
CC(O)CNc1nc2sc3c(c2c(=O)n1CCc1ccccc1)CCCCC3 (stereo not drawn)	i	-14%
Cc1ccc(CN2CCN(Cc3ccc(-n4cccn4)cc3C)CC2CCO)cc1 (stereo not drawn)	-18%	-19%
Cc1noc(NS(=O)(=O)c2ccc(N3Cc4ccccc4C3=O)cc2)c1C	-13%	-1%
COc1ccccc1NC(=O)CSc1nncs1	-10%	-11%
COc1ccc(CNC(=O)c2ccc3[nH]c(C)c(C)c3c2)c(OC)c1	-7%	-14%
CCc1ccc(/C=C2/C(=O)N(c3ccccc3)C(=S)N2CC(=O)OC)s1	?	-29%
CSc1ncccc1C(=O)OCC(=O)NC1CC1	-13%	2%
O=C1c2oc3ccc(F)cc3c(=O)c2C(c2cccc(O)c2)N1CCCN1CCOCC1 (stereo not drawn)	-7%	-12%
COc1cc2oc(=O)cc(-c3cccc(-c4ccc(C(F)(F)F)cc4)c3)c2c(OC)c1OC	i	-19%
O=C(CCNS(=O)(=O)c1ccc(Cl)cc1)N1CCCC1	-22%	-18%
Cc1ccc(Cl)cc1NC(=O)c1cc2c(=O)n3cccc(C)c3nc2n1C	-26%	-15%
C=CCN(CC=C)S(=O)(=O)c1ccc(NC(=S)NC(=O)/C=C/c2cccc3ccccc23)cc1	.	-6%
CCOc1cccc(CN2CCC(n3nccc3NC(=O)C3CCCC3)CC2)c1	-2%	-12%
C=CCc1ccc(OCCOCCNCCCC)c(OC)c1	.	0%
CCOC(=O)c1c(C)oc2ccc(N(C(C)=O)S(=O)(=O)c3c(C)cc(C)cc3C)cc12	-15%	-7%
Cc1ccc(Cn2c(CNS(=O)(=O)c3ccc(F)c(Cl)c3)nc3cccnc32)cc1	-14%	-25%
O=C(COC(=O)c1ccco1)c1ccc2ccccc2c1	i	-15%
COc1ccc(S(=O)(=O)N2CCOCC2)cc1NC(=O)CN1C(=O)NC2(CCC(C)CC2)C1=O (stereo not drawn)	i	-6%
Cc1ccc(C)c(-n2c(CNC(=O)c3ccco3)nnc2SCC(=O)Nc2nccs2)c1	i	-13%
COc1ccc(Cl)cc1NC(=O)C(C)n1c(=O)cc(C(F)(F)F)c2c(C)nn(C)c21 (stereo not drawn)	-12%	-2%
CCN(CC(=O)Nc1ccc(NC(C)=O)cc1)C(=O)/C=C/c1ccc2c(c1)OCO2	-13%	-11%

20 of these compounds, reformatted.
canonical_smiles,VACV mCherry inh,Vaccinia Venus
Cc1ccc(CN2CCN(Cc3ccc(-n4cccn4)cc3C)CC2CCO)cc1 (stereo not drawn),-18%,-19%
Cc1noc(NS(=O)(=O)c2ccc(N3Cc4ccccc4C3=O)cc2)c1C,-13%,-1%
COc1ccccc1NC(=O)CSc1nncs1,-10%,-11%
COc1ccc(CNC(=O)c2ccc3[nH]c(C)c(C)c3c2)c(OC)c1,-7%,-14%
CCc1ccc(/C=C2/C(=O)N(c3ccccc3)C(=S)N2CC(=O)OC)s1,?,-29%
CSc1ncccc1C(=O)OCC(=O)NC1CC1,-13%,2%
O=C1c2oc3ccc(F)cc3c(=O)c2C(c2cccc(O)c2)N1CCCN1CCOCC1 (stereo not drawn),-7%,-12%
COc1cc2oc(=O)cc(-c3cccc(-c4ccc(C(F)(F)F)cc4)c3)c2c(OC)c1OC,i,-19%
O=C(CCNS(=O)(=O)c1ccc(Cl)cc1)N1CCCC1,-22%,-18%
Cc1ccc(Cl)cc1NC(=O)c1cc2c(=O)n3cccc(C)c3nc2n1C,-26%,-15%
C=CCN(CC=C)S(=O)(=O)c1ccc(NC(=S)NC(=O)/C=C/c2cccc3ccccc23)cc1,.,-6%
CCOc1cccc(CN2CCC(n3nccc3NC(=O)C3CCCC3)CC2)c1,-2%,-12%
C=CCc1ccc(OCCOCCNCCCC)c(OC)c1,.,0%
CCOC(=O)c1c(C)oc2ccc(N(C(C)=O)S(=O)(=O)c3c(C)cc(C)cc3C)cc12,-15%,-7%
Cc1ccc(Cn2c(CNS(=O)(=O)c3ccc(F)c(Cl)c3)nc3cccnc32)cc1,-14%,-25%
O=C(COC(=O)c1ccco1)c1ccc2ccccc2c1,i,-15%
COc1ccc(S(=O)(=O)N2CCOCC2)cc1NC(=O)CN1C(=O)NC2(CCC(C)CC2)C1=O (stereo not drawn),i,-6%
Cc1ccc(C)c(-n2c(CNC(=O)c3ccco3)nnc2SCC(=O)Nc2nccs2)c1,i,-13%
COc1ccc(Cl)cc1NC(=O)C(C)n1c(=O)cc(C(F)(F)F)c2c(C)nn(C)c21 (stereo not drawn),-12%,-2%
CCN(CC(=O)Nc1ccc(NC(C)=O)cc1)C(=O)/C=C/c1ccc2c(c1)OCO2,-13%,-11%

Next section
SMILES	VACV mCherry inh	Vaccinia Venus
CNS(=O)(=O)c1ccc(NC(=O)c2ccoc2C)cc1	-4%	-1%
CC(NC(=O)c1ccc2c(c1)OCO2)C(c1cccs1)N1CCN(c2ccccc2)CC1 (stereo not drawn)	?	-7%
COc1cccc(OCCOc2c(OC)cccc2OC)c1	-23%	-23%
CC(C)(C)c1ccc(C(=O)Nc2sc3c(c2C(=O)O)CCC3)cc1	-7%	-15%
O=C(N/N=C/c1cc(Cl)ccc1O)C(=O)Nc1ccccc1OC(F)(F)C(F)F	14µM*	?
O=C(O)CNC(=O)CC1S/C(=N/N=C2/NC(=O)CS2)NC1=O (stereo not drawn)	i	9%
Cc1ccc(C)c(NC(=S)NNC(=O)c2cc3c(s2)CCC(C)C3)c1 (stereo not drawn)	i	-16%
CCCN(CC(=O)Nc1ccccc1OC)C(=O)c1ccc(S(=O)(=O)Nc2ccccc2)cc1	-2%	-18%
CC1(C)C(=O)Nc2ccccc2N1C(=O)COC(=O)c1ccc([N+](=O)[O-])o1	?	-20%
COc1ccccc1N/N=C(\C#N)C(=N)N1CCOCC1	-15%	-10%
C=CC[n+]1cccc2cc(Br)ccc21	-18%	-26%
CCOc1ccc(/C(O)=C2/C(=O)C(=O)N(c3nc(C)c(C)s3)C2c2ccco2)cc1 (stereo not drawn)	.	-12%
O=C(COC(=O)C1CC2C=CC1C2)NCCc1ccccc1 (stereo not drawn)	-12%	-12%
CCOC(=O)C1=C(C)N(C)C(=S)NC1c1ccccc1 (stereo not drawn)	-10%	-3%
COCCN1C[C@@H](CO)O[C@@H](n2cnc3c(NCc4cc(OC)c(OC)c(OC)c4)ncnc32)C1	i	-7%
CCOc1cc(-c2nc(-c3ccc(-c4ccccc4)nc3OCC)no2)cc(OCC)c1OCC	-14%	-2%
COP(=O)(CC(=O)c1ccccc1)CC(=O)c1ccccc1	-8%	-2%
O=C(CN1CCc2ccccc21)NN1CC(=O)N(c2ccc(Cl)cc2)CC1=O	?	17%
CCCCCc1cc(=O)oc2c(C(CCN3CCCC3)c3cc(OC)c(OC)c(OC)c3)c(OC)cc(OC)c12 (stereo not drawn)	14µM*	16µM*
O=c1ccc2cc(S(=O)(=O)N3CCCC3)ccc2[nH]1	1%	0%
CCOC(=O)C1(Cc2ccc(Cl)cc2)CCN(C2CCC2)CC1	-4%	-20%
CCCn1c(N)c(NCCN2CCOCC2)c(=O)[nH]c1=O	i	-9%
Cn1cc(CN2CCC(C3(c4ccccn4)NC(=O)N(CC4CCCO4)C3=O)CC2)c2ccccc21 (stereo not drawn)	i	-15%
CCOC(=O)N1CCc2c(sc3c2c(=O)n(CCc2ccccc2)c(=O)n3CC(=O)Nc2ccccc2C)C1	-24%	-29%
CCOCc1c(C(=O)Nc2ccccc2N2CCN(C)CC2)oc2ccccc12	-15%	-24%
Remaining list, next part
SMILES	VACV mCherry inh	Vaccinia Venus
CCOC(=O)C(C)N1C(=O)S/C(=C/c2ccc3c(c2)n(C)c(=O)n3C)C1=O (stereo not drawn)	i	-21%
Cn1cc(SCC(=O)NCCc2ccccc2)c2ccccc21	-6%	-24%
CCOc1ccc(-n2nc3c(Cl)nnc(C)c3c2C)cc1	-6%	-16%
FC(F)(F)c1ccccc1NC(=S)Nc1ccccc1	i	-6%
CC1CCN(c2nn3c(=O)c(C(=O)NCCc4ccc(Cl)cc4)cnc3s2)CC1	-5%	0%
O=C(OCCOCCOC(=O)Oc1ccccc1)Oc1ccccc1	i	-1%

Compound activity from PubChem BioAssay.
